# High-throughput results deposited in PubChem by several laboratories.
# ALR inh: inhibitors of human ALR sulfhydryl oxidase, primary screen, biochemical, H2O2 detection, HRP-luminol luminescence, single point; inhibition, % (concentration not given with the values); purified ALR, DTT oxidation; 290,000 tested, 3.8% active; FAD-linked sulfhydryl oxidase ALR (Homo sapiens), P55789;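 active = mean and each replicate at 75% or more; inconclusive = only one of the two met; inactive = neither met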;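 note: stock transfer was 7.5 nL into about 7.5 µL; 0% = neutral wells and 100% = wells with inactivated enzyme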
# Target sequence (P55789 whole entry, looked up): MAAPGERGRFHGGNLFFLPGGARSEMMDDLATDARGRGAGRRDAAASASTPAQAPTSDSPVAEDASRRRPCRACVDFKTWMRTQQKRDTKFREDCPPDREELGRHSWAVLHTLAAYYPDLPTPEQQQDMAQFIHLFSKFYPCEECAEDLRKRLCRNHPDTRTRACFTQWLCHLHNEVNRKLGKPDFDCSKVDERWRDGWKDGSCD
# rRNA inh HTS: reduced GFP signal of wild-type E. coli, primary screen, bacterial rRNA inhibitor project, GFP/RFP fluorescence, OD600, single point. E. coli WT GFP vs humanized-ribosome RFP mutants, 24 h; active compounds read low; DMSO median 0, no signal -100. GFP signal change (wild-type ribosome), % (test concentration not listed). 350,000 tested, 1.6% active;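 active = significant combined selectivity score with lowered wild-type GFP, culture density cut under 30%, mutant RFP and density less affected; inactive = any of these conditions unmet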; note: one replicate is shown; some compounds called inactive have numbers as strong as hits
# FGF22 binding: binders of human FGF22 protein, primary screen, FGF22 synaptogenesis inhibitor project, biophysical, thermal shift, single point | calls only at 9.99 µM | recombinant FGF22 thermal shift, SYPRO orange fluorescence; percent of sucrose octasulfate shift, DMSO zero | Fibroblast growth factor 22 (Homo sapiens), Q9HCT0 | 340,000 tested, 1.5% active;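 active = melting point raised past a set limit in the mean and every replicate; inconclusive = no clear call; three in four hits are not shown here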
# Target sequence (Q9HCT0 whole entry, looked up): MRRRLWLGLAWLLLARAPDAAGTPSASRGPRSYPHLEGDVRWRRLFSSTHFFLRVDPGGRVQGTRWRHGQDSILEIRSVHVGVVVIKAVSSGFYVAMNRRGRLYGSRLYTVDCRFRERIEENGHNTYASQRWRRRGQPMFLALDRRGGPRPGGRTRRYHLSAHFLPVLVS
# Vif TR-FRET: inhibitors of Vif binding to APOBEC3G peptide, primary screen, biochemical, TR-FRET, GST-Vif 1-94, biotin-A3G peptide, dose response retest (AID 1117319). Virion infectivity factor (Human immunodeficiency virus type 1 group M subtype B (isolate …. TR-FRET GST-Vif / biotin-A3G peptide binding; higher % means a stronger effect; test concentration not given here; strong numbers were not always called active. inhibition, %, or IC50 in µM where a hit was titrated. 260,000 tested, 0.57% active;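 active = above the screen mean plus three standard deviations and confirmed in dose response; inconclusive = results disagree or hit not tested in dose response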;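 note: Vif residues 1-94 fused to GST binding biotinylated APOBEC3G peptide 110-148; 0% = full assay without inhibitor and 100% = GST in place of GST-Vif; retest series ran down from 100 µM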
# MLL AF4-AF9 inh: inhibitors of AF4 peptide binding to AF9, primary screen, biochemical, AlphaScreen, biotin-AF4 peptide, FLAG-AF9, single point; 350,000 tested, 0.47% active; Protein AF-9 (Homo sapiens), P42568; AID 651704, 2012; inhibition, % at 10 µM;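 active = every replicate reaching a set inhibition limit, whatever the replicate mean, cut at about 25% in these data; inconclusive = mean inhibition reaches that limit but some replicates miss it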;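 note: 0% = plate neutral control median and 100% = total signal loss; the record names both 10 and 1 µM as test concentration; the first replicate is given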
# Target sequence (P42568 whole entry, looked up): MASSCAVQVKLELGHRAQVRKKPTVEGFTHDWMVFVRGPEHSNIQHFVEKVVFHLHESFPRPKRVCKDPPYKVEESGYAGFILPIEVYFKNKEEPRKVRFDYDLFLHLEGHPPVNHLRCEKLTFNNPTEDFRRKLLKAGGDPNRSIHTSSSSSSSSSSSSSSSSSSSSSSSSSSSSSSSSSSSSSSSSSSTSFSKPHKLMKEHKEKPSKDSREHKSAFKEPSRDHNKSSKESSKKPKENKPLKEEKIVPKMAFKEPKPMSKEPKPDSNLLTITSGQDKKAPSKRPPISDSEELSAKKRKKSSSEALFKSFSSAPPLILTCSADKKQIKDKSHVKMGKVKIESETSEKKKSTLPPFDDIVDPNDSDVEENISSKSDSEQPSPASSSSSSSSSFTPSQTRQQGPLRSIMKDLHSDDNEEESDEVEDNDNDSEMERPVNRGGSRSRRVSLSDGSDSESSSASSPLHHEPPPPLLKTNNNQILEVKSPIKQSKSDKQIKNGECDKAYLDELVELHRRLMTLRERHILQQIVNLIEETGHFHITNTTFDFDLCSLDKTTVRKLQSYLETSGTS
# E coli growth: E. coli growth inhibition, primary screen, OD600; 330,000 tested, 0.21% active; Escherichia coli growth, 23 h; active compounds read low; OD600 absorbance (no concentration beside the values);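 active = OD600 absorbance below the run mean of sample wells minus 3.6 SD, in any replicate, cut at about 0.56 in these data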;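 note: stock transfer was 300 nL into about 60 µL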
# HNF4A DNA FP: change in binding of human HNF4A to DNA, primary screen, biochemical, fluorescence polarization, FITC-DNA; activity change, % at 10 µM; AID 1224865, 2016; 360,000 tested, 0.3% active; 1 h; in the data active = activity change above about 30%, passing the limit was not always enough;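 note: controls were the assay level and a saturating level of protein; the project sought stronger binding though the title names inhibitors; some compounds called inactive have numbers as strong as hits; positive values seem to mean higher polarization but the record does not say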
# rRNA inh HTS OD600: further read-out of rRNA inh HTS, marked with its call; OD600 change, %; measured here: OD600 growth;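 optical density of the mix in the first replicate; 0 = DMSO median and -100 = no signal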
# rRNA inh HTS RFP: second read-out of rRNA inh HTS, no call of its own (marks repeat the call); RFP signal change, %; measured here: RFP humanized mutant strains;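 first replicate; 0 = DMSO median and -100 = no signal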
# The depositor's hits bear a star; i = inactive; u = inconclusive; x = no result given. Only part of the results is shown. The share of hits here may be higher or lower than overall.
SMILES,ALR inh,rRNA inh HTS,rRNA inh HTS OD600,rRNA inh HTS RFP,FGF22 binding,Vif TR-FRET,MLL AF4-AF9 inh,E coli growth,HNF4A DNA FP
Cn1c(=O)n(C)c2cc(S(=O)(=O)Nc3ccccc3)ccc21,-5,11,6,2.0,i,6%,-3.7,0.67,-3.2
O=C(Nc1cc(F)ccc1F)N[C@H]1CC[C@H](CCn2cc(C3CC3)nn2)O[C@@H]1CO,x,0,-8,1.1,i,x,0.2,x,x
CCC(=O)N1CCCc2cc(S(=O)(=O)CCC(=O)Nc3ccccc3C)ccc21,-3,3,11,-1.5,i,x,-0.6,0.67,-1.9
C=CCn1c(O)c(N=NC(=O)c2ccc3c(c2)OCO3)c2ccccc21,-22,x,x,x,x,5%,x,0.82,-3.8
COc1cc2c3c(c1OC)C(=O)CC3CCCC2 (centres undefined),x,x,x,x,i,x,-1.3,x,4.3
NC(=O)c1ccsc1NC(=O)CS(=O)(=O)c1ccc(Cl)cc1,18,-4,3,4.9,i,2%,-2.3,0.68,-1.6
CN(C)C(=O)N1CCC(C(=O)NCc2ccc(F)cc2)CC1,4,12,12,1.3,i,2%,-2.5,0.73,-2.5
COc1cccc(-c2cn(CC[C@@H]3CC[C@@H](NC(=O)CC4CC4)[C@H](CO)O3)nn2)c1,x,-3,-1,0.3,i,x,-1.2,x,x
COc1ccc(NC(=O)N2C[C@H](O)COC[C@@H]3O[C@H](CC(=O)N4CCCCC4)CC[C@H]32)cc1,x,0,6,-1.2,i,x,0.3,x,x
COc1cccc(-n2c(CNc3ccc(F)cc3)nnc2SCC(N)=O)c1,-2,x,x,x,x,9%,x,0.7,3.3
CC(=O)c1c(C)[nH]c(C(=O)OCC(=O)N2CCN(S(=O)(=O)c3ccc(C)cc3)CC2)c1C,x,-3,-14,0.4,i,-3%,-19,0.71,-2.4
Cc1cccn2c(=O)c(C(=O)NC3CCCCC3C)c(O)nc12 (centres undefined),7,2,0,0.6,i,-4%,3.2,0.67,-6.2

# Full records, looked up by structure. Order of screens: ALR inh	rRNA inh HTS	rRNA inh HTS OD600	rRNA inh HTS RFP	FGF22 binding	Vif TR-FRET	MLL AF4-AF9 inh	E coli growth	HNF4A DNA FP
# `Cc1cccn2c(=O)c(C(=O)NC3CCCCC3C)c(O)nc12` (centres undefined) is entered as 7	2	0	0.6	i	-4%	3.2	0.67	-6.2
# `CN(C)C(=O)N1CCC(C(=O)NCc2ccc(F)cc2)CC1` is entered as 4	12	12	1.3	i	2%	-2.5	0.73	-2.5
# `CCC(=O)N1CCCc2cc(S(=O)(=O)CCC(=O)Nc3ccccc3C)ccc21` is entered as -3	3	11	-1.5	i	x	-0.6	0.67	-1.9
# `COc1cc2c3c(c1OC)C(=O)CC3CCCC2` (centres undefined) is entered as x	x	x	x	i	x	-1.3	x	4.3

# Next part.
SMILES,ALR inh,rRNA inh HTS,rRNA inh HTS OD600,rRNA inh HTS RFP,FGF22 binding,Vif TR-FRET,MLL AF4-AF9 inh,E coli growth,HNF4A DNA FP
Cc1ccccc1NC(=O)NCc1cccnc1,18,2,0,0.3,i,x,0.9,0.71,-0.6
O=C(Cc1ccc(Cl)cc1)Nc1ccc(Br)cc1,-4,4,2,2.4,i,0%,-1.1,0.71,2.0
CCOc1ccccc1NC(=O)CSc1nnc2ccc(-c3ccccn3)nn12,x,5,7,-1.5,i,-12%,-2.4,0.68,-1.4
Cc1ccc(CCNS(=O)(=O)c2ccc3c(c2)NC(=O)C(C)C(=O)N3)cc1 (centres undefined),-1,2,5,-1.3,i,x,-0.3,0.77,-2.1
COc1ccc(-c2csc(C(O)c3ccc(OC)cc3)n2)cc1 (centres undefined),x,-35,-67,-7.2,i,x,-5.0,x,-1.5
CC1CCC(NS(=O)(=O)c2ccc(N3CCCC3=O)cc2)CC1 (centres undefined),-1,2,1,3.5,i,x,-7.9,0.69,0.6
CCCCN1Cc2c(nc3cc(-c4ccco4)[nH]n3c2=O)C1=O,11,x,x,x,i,u,-1.8,x,-8.2
O=C(COc1ccccc1Cl)N1CCN(C(=O)c2ccco2)CC1,-2,6,3,-3.2,i,x,-0.3,0.65,1.8
O=[N+]([O-])c1ccc(NCCCN2CCOCC2)c([N+](=O)[O-])c1,-4,-8,3,-2.9,i,x,1.4,0.67,-7.1
Cc1cc(=O)[nH]c(SCC(=O)Nc2ccccc2C)n1,-1,11,4,2.2,i,3%,-0.2,0.67,2.5
CC(C)(C)OC(=O)c1c(N)n(CCCN2CCCC2=O)c2nc3ccccc3nc12,3,x,x,x,x,-1%,x,0.71,1.3
O=C(Nc1ccccc1)N1C[C@@H]2[C@H](c3ccccc31)[C@@H](CO)N2Cc1ccccc1,x,-7,3,-0.7,i,x,1.8,x,x
CCOC(=O)C1(CCOc2ccccc2)CCN(Cc2cc(OC)cc(OC)c2)CC1,x,-34*,-26*,-6.0*,i,x,-0.1,0.66,-3.0
CC(C)c1csc(CN2CCC(CO)(Cc3cccc(F)c3)CC2)n1,-1,-33,-38,-15,i,x,2.8,0.68,1.9
Cc1ccc(Nc2nc(-c3ccncc3)cs2)cc1,x,18,18,-0.5,i,1%,-0.7,0.73,-0.5
Cc1cccc(N2C(=O)C(Cl)=C(Nc3c(C)n(C)n(-c4ccccc4)c3=O)C2=O)c1C,x,-12,11,-8.4,i,4%,-38,0.66,-0.2
Cc1cc(C)nc(NS(=O)(=O)c2ccc(N3Cc4ccccc4C3=O)cc2)n1,-10,-18,-20,-6.9,i,4%,-3.0,0.73,1.2
O=C(Nc1ccncc1)c1sc2ccccc2c1Cl,x,1,-1,-0.7,i,x,-0.8,0.71,4.3
COc1ccc(NC(=O)C(=O)Nc2cccc3ccccc23)c(OC)c1,-6,22,19,0.5,i,x,-2.7,0.65,3.4
CCCCOC(=O)C(C#N)c1nc2ccccc2nc1N1CCOCC1 (centres undefined),1,x,x,x,x,1%,x,0.74,4.5
C[C@H](CO)N1C[C@H](C)[C@@H](CN(C)C(=O)Nc2ccc(F)cc2)Oc2ccc(N(C)C)cc2CC1=O,x,-5,-6,-3.4,i,x,0.1,x,x
O=[N+]([O-])c1ccc2c(c1)CCN2,x,x,x,x,i,9%,3.6,0.64,-1.7
Cc1ccc2[nH]c(=O)c(CN(Cc3cccnc3)C(=S)NCCCN(C)C)cc2c1,11,7,-10,1.8,i,15%,0.5,0.69,-12
Cc1ccc(C)c(N2CCN(CCN3CCCCC3)CC2)c1,14,6,22,0.8,i,-1%,-0.9,0.67,-4.2
CCN1CCN(C(=O)Cn2ncc3c([nH]c4ccccc43)c2=O)CC1,0,15,10,0.7,i,x,-0.1,0.67,2.6
O=C1OCCN1C(=O)[C@H]1[C@H](c2ccc([N+](=O)[O-])cc2)C(c2ccc(F)cc2)=NN1c1ccc(Br)cc1,x,10,17,3.2,i,5%,5.6,0.69,0.5
C/C=C/c1cnc2c(c1)C(=O)N([C@H](C)CO)C[C@H](C)[C@H](CN(C)C(=O)CN1CCOCC1)O2,x,4,14,-1.9,i,x,-1.3,x,x
O=C(CCSCCc1ccncc1)NCCCN1CCOCC1,x,x,x,x,x,2%,x,0.74,-0.2
COc1ccccc1N1CCN(C(=O)COc2ccc(Cl)cc2)CC1,42,x,x,x,x,10%,x,0.71,-1.3
O=C(O)c1ccc(CSc2nnc(-c3ccco3)o2)cc1,-4,7,4,-0.2,i,1%,-2.2,0.74,4.9
O=C1C=C(c2cccc3c2oc2ccccc23)C[C@@H](c2ccc(F)cc2)C1,-2,16,20,-7.4,i,x,-3.9,x,0.6
O=C(C[C@@H]1CC[C@@H]2[C@H](COC[C@H](O)CN2S(=O)(=O)c2ccccc2)O1)NCc1ccc2c(c1)OCO2,x,-1,6,-0.8,i,x,-1.0,x,x
COc1cc(OC)c(CN2CCC(CO)(CCOc3ccccc3)CC2)c(OC)c1,-4,3,-2,2.0,i,10%,3.8,0.69,1.9
CCOC(=O)c1c(NC(=S)Nc2ccc(C)cc2)sc2c1CCC2,26,x,x,x,x,-43%,x,0.73,0.8
CC(=O)N(C)C[C@H]1OCc2ccccc2-c2c(n(C)c3ccccc23)C(=O)N([C@@H](C)CO)C[C@@H]1C,x,1,6,-1.1,i,x,0.2,x,x
COc1ccc(-c2nc(C(N)=O)c3[nH]c(=O)n(-c4cccc(Cl)c4)c3n2)cc1OC,x,x,x,x,x,9%,x,0.76,6.3
C[C@H](NC(=O)C[C@@H]1C[C@H]2c3cc(N(C)C)ccc3O[C@H]2[C@H](CO)O1)c1ccccc1,x,3,6,2.1,i,x,5.0,x,x
Cc1nn(-c2ccccc2)c(C)c1C(=O)OCC(=O)Nc1ccc(C(N)=O)cc1,x,4,2,5.7,i,-7%,-0.3,x,5.2
CN(c1ccc(OCC(=O)OCC(=O)Nc2ccccc2)cc1)S(=O)(=O)c1ccc(F)cc1,-1,x,x,x,x,6%,x,0.66,-0.9
Cn1c(=O)c2sccc2n2c(CCCC(=O)NCc3ccc4c(c3)OCO4)nnc12,x,x,x,x,x,-2%,x,0.77,1.6
Cc1ccc(S(=O)(=O)N2CCOCC2)cc1C(=O)OCC(=O)NC1CCS(=O)(=O)C1 (centres undefined),x,x,x,x,i,-4%,-2.0,0.72,3.1
Cc1cc(-c2ccc(S(=O)(=O)NCc3ccc(F)cc3)cc2)on1,-5,-2,-1,1.7,i,3%,1.2,0.65,-3.6
CC(=O)N1CC2(C1)[C@H](c1ccccc1)[C@@H](CO)N2C(=O)c1cnccn1,x,6,18,-0.3,i,x,-3.8,x,x
COc1ccc(S(=O)(=O)N2CCN(CC(=O)Nc3cccc(OC)c3)CC2)cc1,-3,0,-3,3.8,i,1%,-1.2,0.74,-4.7
CCC(C)NC(=O)COC(=O)c1oc2ccccc2c1CSc1ccc(Cl)cc1 (centres undefined),-3,5,9,0.2,i,-2%,-1.9,0.76,-0.8
Cc1ccc(S(=O)(=O)Nc2ccc(=O)n(Cc3ccc(Cl)c(Cl)c3)c2)cc1,x,x,x,x,x,4%,x,0.71,9.4
O=C(Nc1ccccc1)NC1CCN(Cc2nnnn2C2CCCCC2)CC1,-5,x,x,x,x,19%,x,0.66,-0.9
O=C(CSc1nc(-c2ccccc2)cs1)NCc1ccco1,0,x,x,x,x,0%,x,0.65,-2.7
C[C@H](CO)N1C[C@H](C)[C@H](CN(C)Cc2ccccc2)Oc2c(NC(=O)Nc3ccccc3)cccc2C1=O,x,2,-1,-1.3,i,x,1.7,x,x
O=S(=O)(CCNCc1cccs1)c1ccc(Cl)cc1,x,x,x,x,i,u,2.3,0.66,2.5
S=C(Nc1ccccc1)Nc1ccc(Br)cc1,-3,-50,-78,-30,i,x,3.6,0.6,-3.2
O=C(NCCc1ccc2c(c1)OCCO2)c1cc(F)cc(F)c1,-2,x,x,x,x,14%,x,0.69,-0.8
O=C(N[C@@H]1CC[C@H](CCn2cc(C3(O)CCCC3)nn2)O[C@H]1CO)C1CCOCC1,x,2,4,-1.6,i,x,-0.5,x,x
C[C@@H]1CN([C@H](C)CO)C(=O)c2cc(C#CC(C)(C)O)cnc2O[C@H]1CN(C)C(=O)CC1CC1,x,6,5,-0.8,i,x,-3.1,x,x
Cc1noc(NC(=O)c2c(-c3c(Cl)cccc3Cl)noc2C)c1[N+](=O)[O-],-2,-5,-2,1.6,i,1%,-0.8,0.63,3.6
